Assay outcomes: PubChem, Center for Chemical Genomics, University of Michigan
HIV TAR-Tat: HIV-1 TAR-Tat binding disruption; HIV-1 TAR RNA, Tat peptide displacement FRET; hits give high values; 100,000 tested, 0.6% active; z-score (test concentration not listed);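 also: score is relative to mean and SD of negative controls; some compounds called inactive have numbers as strong as hits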
CDC25B-CDK2 inh: human CDC25B-CDK2/CyclinA binding inhibition; P30305+P24941; HTRF CDC25B-CDK2/CyclinA binding, anti-His/anti-Flag; hits give high values; z-score (no concentration beside the values); 94,000 tested, 0.72% active; AID 1259370;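 also: score is relative to mean and SD of negative controls; strong numbers were not always called active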
An asterisk follows results filed as active; x = no result given.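 The calls were made as follows: active = z-score from 3 up in half or more of its runs; inactive = the rest.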

cpd | SMILES | CDC25B-CDK2 inh | HIV TAR-Tat
1 | Nc1c(-c2nc(-c3ccc(F)cc3)no2)nnn1-c1ccccc1F | x | 1.3
2 | Cc1ccc(/C(O)=C2/C(=O)C(=O)OC2c2ccc(Cl)cc2)cc1 (stereo not drawn) | 0.34 | 1.3
3 | CCCCN(CC)C(=O)c1c2c(nc3ccccc13)C(=O)N(C1CCCCC1)C2 | x | 1.3
4 | Cc1ccc(Cl)cc1NS(=O)(=O)c1c(C)nc2scc(C)n2c1=O | 0.91 | 0.07
5 | Cc1ccc(-c2cn3cccc(C)c3n2)cc1NS(=O)(=O)c1ccc(F)cc1 | -0.65 | -0.63
6 | CC1C(=O)N2CCCc3cc(S(=O)(=O)NC4CCCC4)cc1c32 (stereo not drawn) | x | 3.5
7 | Cc1ccc(N2CC(c3nnc(NC(=O)C4CC4)o3)CC2=O)cc1 (stereo not drawn) | -1.3 | 1.5
8 | CCOc1ccc(C(=O)NC(=S)Nc2ccc(NC(=O)c3cccs3)cc2)cc1[N+](=O)[O-] | -2 | x
9 | O=c1oc2c3c(ccc2c2c1CCC2)OCN(c1ccc(F)cc1)C3 | 9.7 | x
10 | CSc1cccc(NC(=O)C2C3C=CC4(O3)C2C(=O)N(C(C)C)C4C(=O)NC2CCCCC2)c1 (stereo not drawn) | -1.8 | 1.2
11 | Cn1c(=O)c2cc(C(=O)NCCCN3CCOCC3)sc2c2ccc(Cl)cc21 | -0.44 | 1.6
12 | COC(=O)c1nnn(-c2ccccc2OC)c1C(=O)OC | -4.2 | 1.4
13 | O=[N+]([O-])c1ccc(-c2nc(-c3ccc4c(c3)ncn4C3CCCC3)no2)o1 | x | 3.5
14 | COc1ccc(NC(=O)N(CCC(C)C)C(C)c2ccco2)c(OC)c1 (stereo not drawn) | x | 0.75
15 | O=C(Nc1ccc2nsnc2c1)c1cc(=O)c2ccccc2o1 | -2.1 | 1
16 | N#CCCN(CC1CCCO1)C(=S)Nc1cc(C(F)(F)F)cc(C(F)(F)F)c1 (stereo not drawn) | -1.5 | x
17 | Cc1nc2sc3c(=O)n(Cc4ccco4)nnc3c2c(C)c1Br | 0.24 | 1.1
18 | Cc1ccc(-c2cc(C(F)(F)F)n3nc(C(=O)NCc4c(C)nn(C)c4C)cc3n2)cc1 | -2.1 | x
19 | Cn1nnnc1SCC(=O)N1CCN(S(=O)(=O)c2ccccc2)C1 | 0.35 | -1.3
20 | O=C1C(=Cc2ccc([N+](=O)[O-])s2)C(=O)c2ccccc21 | -2.7 | x
21 | Cn1c(=O)c(C(=O)O)nn(-c2ccccc2)c1=O | -0.72 | -0.12
22 | O=C(c1ccc(Cl)cc1)c1cc2ccccc2o1 | 0.98 | -1.1
23 | CN(C)CCCOC(=O)c1ccc2c(c1)OCCO2 | -0.97 | 0.29
24 | Cc1nc2sc(C(c3cccc(F)c3)N3CCN(c4cccc(Cl)c4)CC3)c(O)n2n1 (stereo not drawn) | -2.1 | x
25 | Cc1nc(-c2ccc(C)c(S(=O)(=O)N3CCCCC3C)c2)cs1 (stereo not drawn) | x | 1.6
26 | O=C(COc1ccccc1)Nc1nnc(SCc2cc(=O)n3ccsc3n2)s1 | x | 0.77
27 | Cc1cc(Cl)ccc1Nc1sc(C(=O)c2cc3cc(Cl)ccc3o2)c(N)c1C#N | -1.5 | x
28 | COc1ccc(OC)c(CNc2nc(N3CCC(N4CCCCC4)CC3)nc3c2cnn3C)c1 | x | 0.09
29 | CCCc1cc(=O)n2[nH]c(NC(=O)C3CCCCC3)nc2n1 | -2.9 | -1.7
30 | CCOc1ccc(-c2cccc(NS(=O)(=O)c3cc(F)ccc3F)c2)nn1 | x | 0.16
31 | Cc1cccc(N(C)S(=O)(=O)c2cc(-c3onc(C)c3C)ccc2C)c1 | x | 2
32 | CCOC(=O)c1cc(=O)c2ccccc2n1C | -0.5 | 1.1

Single records, as listed above. Order of values: CDC25B-CDK2 inh, HIV TAR-Tat
`COc1ccc(OC)c(CNc2nc(N3CCC(N4CCCCC4)CC3)nc3c2cnn3C)c1` in the list: x, 0.09
`O=[N+]([O-])c1ccc(-c2nc(-c3ccc4c(c3)ncn4C3CCCC3)no2)o1` in the list: x, 3.5
`N#CCCN(CC1CCCO1)C(=S)Nc1cc(C(F)(F)F)cc(C(F)(F)F)c1` (stereo not drawn) in the list: -1.5, x

(listing goes on)
cpd | SMILES | CDC25B-CDK2 inh | HIV TAR-Tat
33 | CC1CCCCC1NC(=O)Cn1cc2c(n1)CCCCCC2 (stereo not drawn) | 0.65 | 0.06
34 | O=S(=O)(c1ccc2c(c1)OCCO2)N1CCN(C(c2ccccc2)c2ccccc2)CC1 | -0.92 | x
35 | CCc1ccc(C2CC(=O)Nc3c2c(=O)n(C)c(=O)n3C)cc1 (stereo not drawn) | 0.17 | 1.9
36 | Cc1ccc(-c2noc(COc3ccc(C)c(C)c3)n2)cc1 | -1.8 | x
37 | CSc1nnc2c(n1)[nH]c1c(C)cccc12 | -0.36 | -1.4
38 | COc1cccc(-c2nc3c(c(=O)[nH]2)Cc2ccccc2O3)c1OC | -1.4 | -0.23
39 | Fc1cc(Br)ccc1CSc1nc2ncccc2o1 | x | -0.95
40 | CC1CC(C)CN(S(=O)(=O)c2ccc3c(c2)oc(=O)n3CC(=O)N2CCc3ccccc3C2)C1 (stereo not drawn) | x | 1.9
41 | Cc1ccc(Cc2cnc(NC(=O)C3Cc4ccc(C)cc4C(=O)O3)s2)cc1 (stereo not drawn) | -0.38 | -0.3
42 | CCN(CC)S(=O)C12CC3CC(CC(C3)C1)C2 (stereo not drawn) | -0.74 | x
43 | Cc1nn(-c2ccccc2)c2c1CNC(c1ccc(N(C)C)cc1)c1cccn1-2 (stereo not drawn) | -0.48 | -1.2
44 | CCOc1ccc(/C=C/c2nc(C#N)c(NCc3ccc(F)cc3)o2)cc1 | -0.97 | 0.8
45 | O=C(CCC(=O)N1CCSc2ccccc21)NCC1CCCO1 (stereo not drawn) | x | 1.7
46 | CCOC(=O)c1ccccc1NC(=O)Cn1cnc2c1c(=O)n(C)c(=O)n2C | -2.3 | x
47 | O=C(Cc1noc2ccccc12)NCCc1ccsc1 | -2.2 | 0.28
48 | COc1ccc2c(c1)c1c(c(=O)n(Cc3ccccc3)c(=O)n1Cc1cc(=O)n3ccccc3n1)n2C | x | 0.79
49 | CN(CCNc1ncnc2onc(-c3ccc(F)cc3)c12)C1CCCCC1 | x | -0.16
50 | CCOC(=O)c1sc(Sc2ccc(C(F)(F)F)cn2)c2c1CC(C)(C)CC2=O | -3.2 | x
51 | Cc1ccc(N2CCN(S(=O)(=O)c3ccc(-c4ccc(=O)[nH]n4)s3)CC2)c(C)c1 | x | -2.1
52 | Nc1ccc2nn(-c3ccc(Cl)cc3)nc2c1 | 0 | -0.22
53 | C=CCn1c(N)cc(=O)nc1SCC(=O)Nc1sc2c(c1C(=O)OCC)CCCC2 | -2.2 | x
54 | CCCCc1nc(SCC(=O)Nc2cc(C)on2)c2c(=O)n(C)c(=O)n(C)c2n1 | x | 0.41
55 | CC(=O)OCC(=O)[C@@]1(O)CCC2C3CC[C@@H]4C[C@H](OC(C)=O)CC[C@]4(C)C3C(=O)C[C@@]21C (stereo partly drawn) | x | 2.2
56 | CCOC(=O)CN1C(=O)C(O)(CC(=O)c2ccc3c(c2)OCCO3)c2ccccc21 (stereo not drawn) | 0.12 | -0.43
57 | CC1Cc2ccccc2N1C(=O)c1cnn2c(C(F)F)cc(-c3ccccc3)nc12 (stereo not drawn) | -2.5 | -1.4
58 | CCc1nnc(SCc2nc(-c3ccc(OC)cc3)oc2C)c2cc3occc3n12 | x | 1.1
59 | CCOC(=O)C(CC)n1nc(C)n2c(cc3occc32)c1=O (stereo not drawn) | -0.31 | 0.74
60 | Cc1cc(C)n(-c2nc3c(c(C(F)(F)F)n2)CC(C)CC3)n1 (stereo not drawn) | -1.2 | x
61 | CC(C)(CC(=O)O)CC(=O)Nc1ccc(Br)c(C(F)(F)F)c1 | -0.04 | x
62 | COc1c2c(nc3ccccc13)OC(C(C)(O)CO)C2 (stereo not drawn) | x | 0.09
63 | Cc1nc(C)c(-c2ccc(SCC(=O)N3CCN(c4ccccc4)CC3)nn2)s1 | x | 1.5
64 | O=C(Nc1ccccc1)Nc1nnc(C(F)(F)F)s1 | -2.5 | x
65 | CCN(CC)CCCN(c1ccccc1)C1Cc2ccccc2C1 | -2.2 | x
66 | O=C(NC1CCCCNC1=O)c1cccnc1Oc1ccc(Cl)cc1 (stereo not drawn) | -1.7 | x
67 | Cc1nc(S(=O)(=O)c2ccc(Br)cc2)c(NCc2ccccc2)o1 | x | 0.44
68 | COc1ccc(NC(=O)NC2(C(F)(F)F)Oc3ccc(Cl)cc3O2)cc1 (stereo not drawn) | 0.95 | x
69 | Cc1ccc(Nc2ccccc2)nn1 | -0.14 | x
70 | Cc1cc(Cl)ccc1NS(=O)(=O)c1c(C)[nH]c(=O)[nH]c1=O | x | 1.2
71 | CCC(C)NC(=O)CCS(=O)(=O)c1ccc2c(c1)n(C)c(=O)c(=O)n2C (stereo not drawn) | -0.61 | 2
72 | COc1ccc(S(=O)(=O)N2CCN(CC(=O)Nc3cc(NC(C)=O)ccc3OC)CC2)cc1 | -1 | x
73 | N#Cc1c(-c2ccccc2)nc(SCc2ccc(C(=O)O)cc2)[nH]c1=O | -1.5 | -0.93
74 | CC1SCC(=NOC(=O)c2ccccc2Cl)CS1 (stereo not drawn) | 13* | x
75 | Cc1csc2ncc(C(=O)NC(C)c3ccc4c(c3)OCCO4)c(=O)n12 (stereo not drawn) | x | 1
76 | Cn1c(=O)[nH]c(=O)c2c1nc(NCCO)n2CC(O)COc1ccccc1 (stereo not drawn) | -1.1 | -1.8
77 | COc1ccc(OC)c(C(=O)c2oc3ccc(Br)cc3c2NC(C)=O)c1 | 1.7 | 1.1
78 | COc1cccc(C2CC(=O)N3CN(CCCc4ccccc4)CSC3=C2C#N)c1 (stereo not drawn) | 5* | 1.4
79 | COc1cn(CC(=O)Nc2ccc3c(c2)OCO3)c(CSc2nncn2C)cc1=O | x | 1
80 | O=C(COc1ccc(F)cc1)Nc1ccccc1OCc1cc(=O)n2ccccc2n1 | x | 1.1
81 | CCN(Cc1ccccc1)C(=O)CCCn1nc(C)n2c(cc3occc32)c1=O | -1.9 | 1.4
82 | COc1ccc2c(c1)CC(NC(=O)NCCc1cccs1)CO2 (stereo not drawn) | x | 1.8
83 | CCCN1C(SCC(=O)N2CCCc3ccccc32)=NS(=O)(=O)c2ccccc21 | x | 0.74
84 | O=C(OCc1cc(=O)n2ccsc2n1)c1ccco1 | x | 1.5
85 | O=C1NCC(CN(c2ccccc2)c2ccccc2)O1 (stereo not drawn) | -1.4 | x
86 | CCOC(=O)c1nc(N2CCN(c3ccc(F)cc3)CC2)c2ccccc2n1 | x | 1.6
87 | CCn1cc(C2=NOC(C(=O)NCc3ccc4c(c3)OCO4)C2)c(C)n1 (stereo not drawn) | -1.5 | 2.9
88 | C=CCn1c(SCC(=O)Nc2nc(C)cs2)nnc1-c1cc2ccccc2o1 | x | 2.2

Remaining list, next part
cpd | SMILES | CDC25B-CDK2 inh | HIV TAR-Tat
89 | CC(=O)NN(C)c1ccc(C(F)(F)F)cc1[N+](=O)[O-] | -1.5 | x
90 | Cc1c(-c2ccccc2)cn2ccn3c(C)ccc3c12 | -2.3 | -14
91 | Cc1c(Cl)cccc1NS(=O)(=O)c1ccc(N2CCCCS2(=O)=O)cc1 | x | 0.3
92 | CCCc1c(OCCCOc2ccc3c(=O)c(-c4ccccc4)coc3c2)ccc(C(C)=O)c1O | -0.45 | x
93 | O=C(Nc1nnc(S(=O)(=O)N2CCCC2)s1)c1cccc2ccccc12 | -1.8 | 1.5
94 | Nc1ccc(S(=O)(=O)Nc2ccc(Cl)nn2)cc1 | x | -0.51
95 | Cc1nc(Nc2nc3c(c(=O)[nH]2)CCC3)nc2ccccc12 | 0.81 | x
96 | CCCS(=O)(=O)Nc1ccc2c(c1)CCC(=O)N2C | x | 0.83
97 | O=[N+]([O-])c1cc(C(F)(F)F)ccc1Nc1ncc(C(F)(F)F)cc1Cl | -2.3 | x
98 | Cc1cccc(NC(=O)C2CC3CSCN3C23C(=O)Nc2ccccc23)c1 (stereo not drawn) | x | -0.21
99 | COc1ccc(OCC(=O)Nc2nnc3n2CCCS3)cc1 | x | -0.23
100 | CCOc1ccc2c(c1)-c1c(sn(-c3ccccc3OC)c1=S)C(C)(C)N2 | -2.9 | 1.4
101 | O=C(CCc1nnc2ccc(NCc3ccccc3Cl)nn12)NCC1CCN(C2CCCC2)C1 (stereo not drawn) | x | -0.23
102 | CN1CCN(S(=O)(=O)c2csc(C(N)=O)c2)CC1 | x | 0.65
103 | CC1CCN(S(=O)(=O)c2cc3c4c(c2)C(C)C(=O)N4CCC3)CC1 (stereo not drawn) | x | 2.5
104 | O=C(CCc1nc2sc3c(c2c(=O)[nH]1)CCCCC3)NCCC1=CCCCC1 | x | 1.3
105 | Cn1c2ccccc2c2cnn(CC(=O)Nc3cccc(F)c3)c(=O)c21 | -2.5 | 0.2
106 | O=S(=O)(c1ccc(Cl)cc1)N(CCO)CC(O)Cn1c2ccccc2c2ccccc21 (stereo not drawn) | -0.58 | -1
107 | CCCc1cc2c(=O)c(-c3ccc(C(=O)OCC)o3)coc2cc1O | -0.8 | -0.32

In the list so far, 5 contain bromine:
cpd | SMILES | CDC25B-CDK2 inh | HIV TAR-Tat
17 | Cc1nc2sc3c(=O)n(Cc4ccco4)nnc3c2c(C)c1Br | 0.24 | 1.1
39 | Fc1cc(Br)ccc1CSc1nc2ncccc2o1 | x | -0.95
61 | CC(C)(CC(=O)O)CC(=O)Nc1ccc(Br)c(C(F)(F)F)c1 | -0.04 | x
67 | Cc1nc(S(=O)(=O)c2ccc(Br)cc2)c(NCc2ccccc2)o1 | x | 0.44
77 | COc1ccc(OC)c(C(=O)c2oc3ccc(Br)cc3c2NC(C)=O)c1 | 1.7 | 1.1

Rows are unselected, and some 0.89% of all compounds hit somewhere here.
